Vaccinia Venus: inhibitors of vaccinia virus (Venus reporter); Vaccinia virus Venus reporter expression, fluorescence; Potency, µM (highest dose often 36.5 µM), for inactives: at the top dose activity change, negative = inhibition, usual class: inhibitors; actives 0.46% (n = 330,000); active means well fitted inhibition curve with a large enough effect; inconclusive means small, poorly fitted or top-dose-only effect; inactive means no such curve, though single readings can be large or run the other way; tested in A549 cells; also: nearly all actives have a fitted effect of over 30% in size; inactives centre near -10
Vaccinia mCherry: vaccinia inhibition (mCherry reporter). Vaccinia virus mCherry reporter infection, fluorescence; about a quarter of the inactives have no number. Potency, µM (titrated, usually from 36.5 µM), inactives show at the highest dose activity change, negative = inhibition, usual class: inhibitors. actives 0.63% (n = 310,000). AID 720579; active = well fitted inhibition curve with a large enough effect; inconclusive = small, poorly fitted or top-dose-only effect; inactive = no such curve, though single readings can be large or run the other way; tested in A549 cells; also: nearly all actives have a fitted effect of over 35% in size; inactives centre near -10
* = called active by the depositor; i = inactive; ? = inconclusive; nt = not tested or not shown; & = joins results of further samples; [ ] = another dose, or the depositor's remark. % is scaled to controls: 0 for no effect and ±100 for the full control effect; potency is read from the fitted curve at half-maximal effect. Rows are unselected. About 0.87% of those tested had a hit in this group.

nr	molecule	Vaccinia Venus	Vaccinia mCherry
1	CCn1ccc2cc(S(=O)(=O)N3CCCN(C(=O)Nc4ccc(C)cc4Cl)CC3)ccc21	1%	-7%
2	Nc1c(C(=O)Nc2cccc(C(F)(F)F)c2)c2ccccn2c1C(=O)c1ccccc1	-8%	-8%
3	O=c1cc(-c2nn[nH]n2)[nH]c(=O)[nH]1	14%	-9%
4	Cc1cccc(C)c1OCCCCn1c(C2CC(=O)N(c3ccc(F)cc3)C2)nc2ccccc21 (stereo not drawn)	-25%	-15%
5	COC(=O)C1=C(C(=O)OC)[C@]2([C@@H]3CCCCN[C@@H](Cc4ccccc4)C(=O)N3Cc3ccccc3)C=C[C@H]1O2	-20%	i
6	COC(=O)C1=C(C(=O)OC)[C@@H]2N(C)c3ccccc3[C@@]23C[C@@H](CO)N(C(=O)C2CCC2)C3=N1	-13%	-5%
7	Cc1ccc2c(CC(=O)OC(C)C(=O)Nc3ncc(Cl)cc3Cl)coc2c1 (stereo not drawn)	-20%	i
8	COc1ccc(-c2cc(N)n(S(=O)(=O)c3ccc(F)cc3)n2)cc1OC	?	7.1µM*
9	COc1ccc(-n2ncc3c(N4CCCc5ccccc54)ncnc32)cc1	-5%	3%
10	CN(C)Cc1cc(C(C)(C)C)c(O)c(C(C)(C)C)c1	-10%	i
11	O=C(Nc1cccnc1)c1cc(-c2ccccc2)on1	-9%	-13%
12	CS(=O)(=O)Oc1ccc(Br)cc1/C=C1/N=C(c2ccco2)OC1=O	3%	-15%
13	Cn1c(=O)c2c(nc(SCC(=O)NCc3ccc4c(c3)OCO4)n2Cc2ccc(F)cc2)n(C)c1=O	-5%	-3%
14	CCOc1cc(/C=N/Nc2nc(=O)[nH]nc2C)ccc1O	-11%	-15%
15	C=CCOc1ccc(/C=C2\N=C(C)OC2=O)cc1OC	-10%	i
16	O=C(CNC(=O)c1ccccc1Cl)NC1CCN(Cc2ccccc2)CC1	-4%	-15%
17	O=C(N1CCOCC1)C12CC3CC(C1)CC(C(=O)N1CCOCC1)(C3)C2	-5%	-7%
18	CCC(C(=O)Nc1ccc(C)c(C)c1)n1c(=O)c(C(F)(F)F)nc2ccccc21 (stereo not drawn)	-8%	-2%
19	C[C@@H]1CN([C@H](C)CO)C(=O)c2cc(NC(=O)c3ccncc3)ccc2O[C@@H]1CN(C)C(=O)Nc1ccccc1	-15%	i
20	COc1ccc(OCC(=O)NCC(c2ccc(OC)cc2)N2CCOCC2)cc1 (stereo not drawn)	-16%	i
21	O=C(C[C@H]1CC[C@@H]2[C@H](COC[C@@H](O)CN2Cc2cccc(F)c2)O1)NCC1CCCCC1	-19%	?
22	O=C(COc1ccc(Br)cc1Cl)c1ccc[nH]1	-5%	-9%
23	COc1ccccc1CNC(=O)CN(c1cccc([N+](=O)[O-])c1)S(C)(=O)=O	-7%	-5%
24	Cc1cccc(NC(=O)CNC(=O)COc2ccc(-c3ccc(C#N)cc3)cc2)c1C	-21%	-20%
25	COc1ccc(/C=N/N=C2\SCC(=O)N2c2c(C)n(C)n(-c3ccccc3)c2=O)cc1OC	-20%	-27%
26	COc1ccc(C(=O)c2cc([N+](=O)[O-])ccc2N2CCCC2)cc1	?	?
27	COc1ccccc1N(C(=O)Cn1nnc(-c2ccc(C)o2)n1)C(C(=O)NC1CCCC1)c1ccncc1 (stereo not drawn)	-4%	-13%
28	Cc1cc(=O)oc2c3c(cc(OCC(=O)NCc4ccncc4)c12)OC(C)(C)CC3	-3%	4%
29	CCc1ccccc1NC(=O)CNC(=O)c1ccc(-n2cncn2)c([N+](=O)[O-])c1	-7%	-22%
30	Cc1cc(C)c(C2=Nn3c(C)nnc3SC2C)cc1C (stereo not drawn)	-4%	i
31	Cc1ccc(S(=O)(=O)Nc2cc(-c3ccccc3)nn2C)cc1	11%	i
32	COc1ccc(NC(=O)c2cc(-c3ccc4c(c3)OCO4)on2)cc1	-13%	i
33	CC1=NN(C(=O)c2ccoc2C)C(O)(C(F)(F)F)C1 (stereo not drawn)	-7%[7.34 µM]	-2%[7.34 µM]
34	COc1cccc(N2CCN(CC(=O)NC3=Nc4ccccc4N=C(C)C3c3ccccc3)CC2)c1 (stereo not drawn)	-7%	?
35	CC(=O)c1ccc(OCCCC(=O)N2CCN(S(=O)(=O)c3ccc(C(C)C)cc3)CC2)cc1	-21%	-5%
36	CC1CCc2ccccc2N1CC(=O)Nc1cccc(S(=O)(=O)N2CCCC2)c1 (stereo not drawn)	-6%	?
37	CC(C)Cc1ccc(C(C)NC(=O)c2ccc(=O)[nH]c2)cc1 (stereo not drawn)	-21%	-15%
38	O=C(Cc1ccccc1)NC(Cc1ccc(Cl)cc1)C(=O)O (stereo not drawn)	-3%	-7%
39	O=C(COc1ccccc1)Nc1ccc(N2CCCCC2)cc1	-3%	?
40	Cc1nn(Cc2ccc(F)cc2)c(Cl)c1/C=N/NC(=O)c1ccccc1	0%	-4%
41	Cc1cc2nc3c(c(=O)n2[nH]1)CCCC3	-7%	nt
42	COc1ccc(NC(=O)c2ccc(C(=O)c3ccccc3)o2)cc1	-14%	-3%
43	O=C(O)CCCNc1c(C(=O)Nc2ccc(Cl)cc2)cc([N+](=O)[O-])cc1[N+](=O)[O-]	0%	-8%
44	COc1ccc(-c2cn3cccnc3n2)cc1NC(=O)Nc1ccc(Cl)cc1	-21%	-18%
45	O=C(CCCOc1ccc(Cl)cc1Cl)N1CCCc2ccccc21	-4%	nt
46	COc1ccc(NC(=O)CNS(=O)(=O)c2ccc(Cl)cc2)cc1	?	nt
47	Cc1occc1C(=O)NNC(=O)C1CCCCC1	-1%	-17%
48	N#Cc1c(N)c(C(=O)c2ccc(Cl)cc2)n2c1CCC2	4%	nt
49	COC(=O)c1ccc(C2NC(=O)CCC2[N+](=O)[O-])cc1 (stereo not drawn)	0%	-15%
50	Cc1cc(C)n2nc(CNC(=O)c3ccccc3Cl)nc2n1	2%	-3%
51	Cc1nn(CCC(=O)NNC(=S)Nc2ccc(F)cc2)c(C)c1Br	-6%	i
52	CCCCCN(C(=O)CCC(=O)OCC(=O)NCCc1ccccc1)c1c(N)n(CCCC)c(=O)[nH]c1=O	-15%	i
53	CCOc1cc(/C=C2\NC(=O)NC2=O)cc([N+](=O)[O-])c1O	-8%	-5%
54	CCOc1ccc(/C=C/C(=O)Oc2ccc(OC)cc2)cc1	-3%	-6%
55	O=C(c1ccccc1)c1ccccc1C(=O)N1CCOCC1	-13%	-7%
56	COc1ccc(S(=O)(=O)Nc2cc(S(=O)(=O)c3ccccc3)c(O)cc2C)cc1	-11%	-20%
57	COc1ccc(/C=N/NC(=O)c2ccc3nc[nH]c3c2)c(OC)c1OC	-2%[7.34 µM]	-25%[7.34 µM]
58	CN(C(=O)CSc1cn(CC(=O)N2CCCCC2)c2ccccc12)c1ccccc1	-8%	-8%
59	Cc1ccc(-c2nnc(SCC(N)=O)n2C)cc1	-14%	i
60	Cc1onc(-c2ccccc2)c1C(=O)N1CCc2ccccc21	112%[activator]	-7%

Next records follow.
nr	molecule	Vaccinia Venus	Vaccinia mCherry
61	COc1ccc(Cl)cc1-c1nc(-c2ccc(NC(=O)c3cccs3)cc2)no1	-23%	-22%
62	Cc1ccc(NC(=S)NNC(=S)NC2CCCCC2)cc1	-9%	-13%
63	O=C(CCN1Cc2ccccc2OC(c2ccccc2F)C1)N1CCC(N2CCCC(O)C2)CC1 (stereo not drawn)	-11%	-9%
64	O=C(Nc1ccc(N2CCOCC2)c(Cl)c1)c1cccnc1	4%	nt
65	COc1ccc(S(=O)(=O)c2c(C)c(NS(=O)(=O)c3ccccc3)cc(C)c2O)cc1	-16%&3%	-7%&6%
66	COc1ccc(CCN(C)CCc2ccc(OC)c(OC)c2)cc1OC	-7%	-13%
67	COC(=O)[C@]1(CC(C)C)N[C@H](c2ccc(-c3ccc(C(C)=O)cc3)cc2)[C@@H]2C(=O)N(C)C(=O)[C@@H]21	-10%	i
68	CSc1ccc(CNC(=O)C2CCC(=O)N(CCc3ccc(Cl)cc3)C2)cc1 (stereo not drawn)	-10%	0%
69	CC(NC(=O)C1=CC=CN2CCS(=O)(=O)N=C12)c1ccc(Cl)c(Cl)c1 (stereo not drawn)	-19%	i
70	CC(C)NC(=O)c1cc2ccccc2o1	-4%	-5%
71	Cc1nn(C(C)C)c(C)c1CN1CCN(Cc2ccsc2)C(CCO)C1 (stereo not drawn)	1%	i
72	Cc1ccc(N2CCN(C(C(=O)Nc3c(C)cccc3C)c3cc4ccccc4o3)CC2)cc1 (stereo not drawn)	-1%	-24%
73	CCOC(=O)CSc1nc(C2CC2)nc2ccccc12	-12%	-16%
74	CCc1ccc(NC(=O)CC(c2cc(OC)c(OC)c(OC)c2)N2Cc3ccccc3C2=O)cc1 (stereo not drawn)	1%	17%
75	COC(=O)c1ccccc1NC(=O)c1cc2n(n1)C(C(F)F)CC(C(F)F)N2 (stereo not drawn)	-4%	nt
76	CCCCn1c(=NC(=O)c2cc3ccccc3o2)c(C(=O)OCC)cc2c(=O)n3ccccc3nc21	0%	1%
77	Cc1ccc(S(=O)(=O)N2CCC(C(=O)O)CC2)cc1C(=O)O	-4%	-7%
78	Cc1ccc(-c2nn(-c3ccccc3)cc2C(=O)N2CCN(c3ccccn3)CC2)cc1	?	-17%
79	CCc1c(C)nc(SCC(=O)CC(=O)OC(C)C)c(C#N)c1C	-4%	-16%
80	CCOC(=O)C(C)Sc1nc2ccccc2c(=O)n1CC (stereo not drawn)	-11%	nt
81	O=C(c1ccc2c(c1)N(Cc1cccc(F)c1)C(=O)c1ccccc1S2)N1CCOCC1	-2%	-11%
82	O=C(O)c1ccc(-n2cccn2)nc1	-1%	i
83	C=CCn1c(-c2ccc(OC)c(OC)c2)n[nH]c1=S	-5%	i
84	CCN(Cc1ccccc1)C(=O)CCNS(=O)(=O)c1cc(Br)cnc1N	-20%	-2%
85	COc1ccc(Cl)cc1NC(=O)CSc1nc(=O)[nH]c2c1CCCC2	-11%[7.34 µM]	-8%[7.34 µM]
86	CS(=O)(=O)Nc1cccc(-c2nc(NCCN3CCOCC3)c3ccccc3n2)c1	-6%	0%
87	Cc1cc2c(cc1C)[n+](C)cn2CC(O)COCc1ccccc1 (stereo not drawn)	-18%	-26%
88	CCOc1ccc(NC(=O)C2CCN(S(=O)(=O)c3ccc4c(c3)CC(C)N4C(C)=O)CC2)cc1 (stereo not drawn)	-8%	-15%
89	Cc1ccccc1C(=O)NNS(=O)(=O)c1cccc([N+](=O)[O-])c1	-10%	-9%
90	CN(C)CCn1c2c(c(SCC(=O)N3CCc4ccccc43)nc1=O)CCCC2	-11%	-21%

Whole records as entered above:
C=CCn1c(-c2ccc(OC)c(OC)c2)n[nH]c1=S as listed: Vaccinia Venus = -5%; Vaccinia mCherry = i
COc1ccc(Cl)cc1NC(=O)CSc1nc(=O)[nH]c2c1CCCC2 as listed: Vaccinia Venus = -11%[7.34 µM]; Vaccinia mCherry = -8%[7.34 µM]

Grouped by structure: the compounds so far containing a CF3 group (three)
nr	molecule	Vaccinia Venus	Vaccinia mCherry
2	Nc1c(C(=O)Nc2cccc(C(F)(F)F)c2)c2ccccn2c1C(=O)c1ccccc1	-8%	-8%
18	CCC(C(=O)Nc1ccc(C)c(C)c1)n1c(=O)c(C(F)(F)F)nc2ccccc21 (stereo not drawn)	-8%	-2%
33	CC1=NN(C(=O)c2ccoc2C)C(O)(C(F)(F)F)C1 (stereo not drawn)	-7%[7.34 µM]	-2%[7.34 µM]

Next results follow.
nr	molecule	Vaccinia Venus	Vaccinia mCherry
91	CCOC(=O)C1CCN(C(=O)c2ccc3snnc3c2)CC1	-14%	nt
92	COc1ccc(OC)c(CCNC(=O)CCc2nnc3ccc(N4CCOCC4)nn23)c1	19%[7.34 µM]	14%[7.34 µM]
93	CN(C)c1ccnc(Nc2ccccc2)c1C#N	3%	i
94	c1ncn(C23CC4CC(CC(C4)C2)C3)n1	-16%	i
95	COc1ccc(CNC(=O)CSc2nc3ccc(C)cc3[nH]2)cc1OC	0%	1%
96	COCCNC(=O)C1(C)CCCN(Cc2cc(-c3ccccc3)n(C)n2)C1 (stereo not drawn)	-2%	0%
97	O=C(CN1CCOCC1)Nc1ccc(C2CCCCC2)cc1	-2%	-15%
98	COc1cccc(C(O)c2nc(-c3cccc(C#N)c3)cs2)c1 (stereo not drawn)	-11%	i
99	Cc1ccc(CCCNC(=O)C2CCC(=O)N(Cc3cccc(F)c3)C2)cc1 (stereo not drawn)	-14%	i
100	COc1ccc(C(=O)C(=NNc2ccccc2)c2ccc(OC)cc2)cc1	-7%	?
101	CCOC(=O)N1CCN(C(=O)C[C@@H]2C[C@@]3(C(=O)OC)CC(C)(C)CC=C3N(Cc3ccccc3)C2=O)CC1	-13%	i
102	CCN(CC)S(=O)(=O)c1ccc2oc(C(=O)N3CCOCC3)c(C)c2c1	-18%	7%
103	COc1ccc(S(=O)(=O)N2CCC(C(=O)NCc3ccco3)CC2)cc1	-15%	i
104	COc1cccc(CNC(=O)c2ccc3oc(=O)n(Cc4ccccc4)c3c2)c1	1%	-10%
105	CC(C)CN(C(=O)COC(=O)c1ccc2ccccc2n1)C1CCS(=O)(=O)C1 (stereo not drawn)	2%	-4%
106	O=S(=O)(NCCNc1nccc(C(F)(F)F)n1)c1ccccc1	-6%	-16%
107	c1ccc(-c2n[nH]c3c2CCC3)cc1	-29%	nt
108	CCOC(=O)c1cc(C)sc1NC(=O)CN1CCN(C(=O)c2ccco2)CC1	-18%	-4%
